UCH37 inh: human UCH37 deubiquitinating enzyme inhibition; Q9Y5K5; purified proteasome/UCH37, Ub-AMC cleavage fluorescence; inhibition, % (concentration not given with the values); hit rate 0.33% among 330,000; AID 588478;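 active = mean of two replicates above 20%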;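 also: 0% = compound-free wells with enzyme and 100% = wells lacking proteasome; stock transfer was 100 nL into about 20 µL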
Target sequence (Q9Y5K5 whole entry, looked up): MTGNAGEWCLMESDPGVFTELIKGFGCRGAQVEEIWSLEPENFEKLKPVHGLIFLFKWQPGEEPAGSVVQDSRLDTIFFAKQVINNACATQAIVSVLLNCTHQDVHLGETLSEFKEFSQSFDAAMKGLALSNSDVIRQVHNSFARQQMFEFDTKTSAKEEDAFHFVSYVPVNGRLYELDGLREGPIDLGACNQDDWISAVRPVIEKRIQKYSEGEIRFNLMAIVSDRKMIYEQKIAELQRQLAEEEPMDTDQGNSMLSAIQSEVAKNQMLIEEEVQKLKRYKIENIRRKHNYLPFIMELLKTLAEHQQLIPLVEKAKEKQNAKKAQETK
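Signal – fluorescence, ex 355 nm, em 460 nm · System – Proteasome-bound UCH37 · Input – 0.15 nM proteasome as dispensed · Timing – 30 min preincubation with enzyme, 25 min cleavage at room temperature · Read-out basis – percent inhibition of cleavage signal versus uninhibited and no-proteasome wells · Medium – Tris-HCl pH 7.4 with ATP-MgCl2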
MLL AF4-AF9 inh: MLL-AF4/AF9 protein interaction inhibition | inhibition, % at 10 µM | P42568 | AID 651704 | hit rate 0.47% among 350,000 | AlphaScreen, biotin-AF4 peptide binding to FLAG-AF9;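 active = every replicate reaching a set inhibition limit, whatever the replicate mean, cut at about 25% in these data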;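 also: 0% = plate neutral control median and 100% = total signal loss; the record names both 10 and 1 µM as test concentration; the first replicate is given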
Target sequence (P42568 whole entry, looked up): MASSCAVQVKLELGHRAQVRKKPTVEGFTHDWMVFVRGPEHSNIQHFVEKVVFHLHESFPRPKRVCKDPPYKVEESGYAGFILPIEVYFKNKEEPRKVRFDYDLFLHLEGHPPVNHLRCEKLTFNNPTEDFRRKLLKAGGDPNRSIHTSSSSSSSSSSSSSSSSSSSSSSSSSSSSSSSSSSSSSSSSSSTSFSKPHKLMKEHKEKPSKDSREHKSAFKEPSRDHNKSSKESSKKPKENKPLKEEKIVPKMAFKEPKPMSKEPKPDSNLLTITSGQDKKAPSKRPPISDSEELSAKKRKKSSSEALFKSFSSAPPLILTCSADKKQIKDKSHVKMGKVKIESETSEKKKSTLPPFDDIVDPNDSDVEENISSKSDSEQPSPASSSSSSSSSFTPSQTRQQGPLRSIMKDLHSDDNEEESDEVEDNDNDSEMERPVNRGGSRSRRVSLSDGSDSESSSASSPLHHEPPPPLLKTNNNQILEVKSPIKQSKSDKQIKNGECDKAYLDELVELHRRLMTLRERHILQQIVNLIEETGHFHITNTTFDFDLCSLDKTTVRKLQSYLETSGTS
A1 inh: inhibitors of the anti-apoptotic protein A1, read as caspase activation. MEF A1-2A-BIM cells, Caspase-Glo 3/7 luminescence, 3 h; percent of clofoctol response, vehicle zero. caspase activation, % (concentration not given with the values). hit rate 0.066% among 330,000. AID 2462;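 active = over half of replicate activation scores above 10%, or exactly half above 10 with the replicate mean above 10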;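 also: wells of about 30 µL received 50 nL stock; many hits fall short of the cut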
Ecoli rRNA inh: inhibitors of bacterial rRNA selective over humanized ribosomes; hit rate 1.6% among 350,000; E. coli WT GFP vs humanized-ribosome RFP mutants, fluorescence, 24 h; stronger effect = lower value; DMSO median 0, no signal -100; GFP signal change (wild-type ribosome), % (concentration not given with the values); AID 720706;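 active = significant combined selectivity score with lowered wild-type GFP, culture density cut under 30%, mutant RFP and density less affected; inactive = any of these conditions unmet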; also: one replicate is shown; some compounds called inactive have numbers as strong as hits
Ecoli growth: E. coli growth inhibition; Escherichia coli growth, OD600, 23 h; stronger effect = lower value; OD600 absorbance (concentration not given with the values); hit rate 0.21% among 330,000; AID 1053175;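 active = OD600 absorbance below the run mean of sample wells minus 3.6 SD, in any replicate, cut at about 0.56 in these data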;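 also: stock transfer was 300 nL into about 60 µL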
Beta cell apopt: beta cell apoptosis inhibition. INS-1E cytokine-induced death, ATP luminescence, 48 h; percent of positive-control rescue, neutral wells zero. protection from apoptosis, % (concentration not given with the values). hit rate 0.8% among 300,000. AID 435005;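 active = all replicates at 75% or more, or half of them and the mean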;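 also: 0% = cytokine-treated negative control wells and 100% = positive control rescue; higher means more ATP so stronger rescue from cytokine killing; wells of about 40 µL received 100 nL stock; the first replicate is given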
FGF22 binding: shifts melting point of recombinant human FGF22; hit rate 1.5% among 340,000; Q9HCT0; AID 651658; recombinant FGF22 thermal shift, SYPRO orange fluorescence; percent of sucrose octasulfate shift, DMSO zero; calls only at 9.99 µM;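 active = melting point raised past a set limit in the mean and every replicate; three in four hits are not shown here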
Target sequence (Q9HCT0 whole entry, looked up): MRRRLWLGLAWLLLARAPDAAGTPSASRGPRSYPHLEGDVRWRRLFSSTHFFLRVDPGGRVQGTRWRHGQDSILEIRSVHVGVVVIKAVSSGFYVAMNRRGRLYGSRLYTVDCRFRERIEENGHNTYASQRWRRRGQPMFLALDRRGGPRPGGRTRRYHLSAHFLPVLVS
T cruzi inh: T. cruzi replication inhibition; AID 1885; inhibition, % (no concentration beside the values); hit rate 1.4% among 300,000; T. cruzi beta-gal in NIH3T3, luminescence, 90 h;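 active = mean inhibition across valid replicates above about 55%, limit read from the data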;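 also: signal also drops with host cell toxicity which is not excluded here; 0% = plate median of DMSO wells and 100% = zero luminescence signal; higher percent means less beta-gal luminescence so fewer parasites; stock transfer was 50 nL into about 50 µL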
Ecoli rRNA inh OD600: second read-out of Ecoli rRNA inh, no call of its own (marks repeat the call); OD600 change, %; measured here: OD600 growth;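 optical density of the mix in the first replicate; 0 = DMSO median and -100 = no signal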
Ecoli rRNA inh RFP: further read-out of Ecoli rRNA inh, marked with its call; RFP signal change, %; measured here: RFP humanized mutant strains;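 first replicate; 0 = DMSO median and -100 = no signal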
* marks the source's active call; other numbers are inactive results; i = inactive; · = no result given; + = active, no number; & = joins results of further samples. The list is partial; the hit share may differ from the screen's.

SMILES	UCH37 inh	MLL AF4-AF9 inh	A1 inh	Ecoli rRNA inh	Ecoli rRNA inh OD600	Ecoli rRNA inh RFP	Ecoli growth	Beta cell apopt	FGF22 binding	T cruzi inh
CC1(C)C([N+](=O)[O-])C(c2ccccc2O)NC(c2ccccc2O)C1[N+](=O)[O-] (centres undefined)	0.1	2.8	-0.2	-49	-77	-14	0.64	-7	i	30
COCCNC(=O)c1ccc(CN2CCOCC2)cc1	3.0	·	-0.6	·	·	·	0.79	-8	·	-12
O=c1[nH]c(CSc2nc3ccccc3s2)nc2ccccc12	0.3	-3.1	-1.4	-2	0	-2.2	0.71	3	i	-4
S=C(NCCC1=CCCCC1)Nc1ccccc1	-1.0	·	0.0	·	·	·	0.73	16	·	-4
N#CCSCC(=O)Nc1ccc(F)cc1	2.9	·	-0.4	·	·	·	0.71	3	·	-4
CC(C)C[C@H](NC(=O)N1CC(=O)Nc2ccccc21)C(=O)N[C@H](Cc1c[nH]c2ccccc12)C(=O)O	2.8	-1.2	-2.0	7	10	9.4	0.79	-2	i	1
CC1(C2(O)CCCCC2)NCCc2ccccc21 (centres undefined)	5.0	-0.1	·	17	18	4.1	0.67	·	i	·
COc1cccc(NC(=O)CSc2nnc(-c3ccoc3C)n2C)c1	-0.1	0.9	-0.5	2	1	-3.5	0.68	-2	i	-3
Cc1ccc(NC(=O)OCc2ccccc2S(C)=O)cc1 (centres undefined)	6.1	1.7	-0.2	-4	-15	-1.1	0.73	-6	i	5
CCN(CC)CCCOc1ccc(C)cc1Br	5.4	·	0.7	·	·	·	0.71	0	·	5
C/C(=N\OCc1ccc(C#N)cc1)c1ccc(S(=O)(=O)N(C)C)cc1	·	3.4	1.2	-17	-26	-5.5	·	3	i	5
NC(=S)Nc1cccc(-c2n[nH]c(=S)o2)c1	-0.9	2.4	0.5	-4	2	-7.0	0.64	0	i	-3
Cc1cccc(C)c1-n1c(C)cc(/C=C2\C(=O)NN(c3ccccc3)C2=O)c1C	3.4	·	0.3	·	·	·	0.76	1	·	2
O=C(Nc1cccc(S(=O)(=O)NC2=NCCC2)c1)C1CCCCC1	3.0	-13	0.2	10	0	-1.5	0.69	-4	i	-6
COC(=O)c1ccc(C2NCCc3cc(OC)c(OC)cc32)cc1 (centres undefined)	-0.1	3.2	-0.2	9	9	-0.5	0.59	-6	i	3
Cc1cccc(C(C)C)c1NC(=O)COC(=O)CCN1C(=O)C2CC=CCC2C1=O (centres undefined)	3.8	-0.4	0.2	8	7	1.2	0.71	-6	i	-15
O=C(NCCCN1CCCC1=O)Nc1ccc(Br)cc1Cl	2.5	0.8	-0.7	-3	4	1.1	0.7	0	i	12
CCn1c(=S)[nH]c2sc3c(c2c1=O)CCCCC3	-0.2	·	0.6	·	·	·	0.71	1	·	-8
COC(=O)c1cccc(NC(=O)NC(=O)c2ccc(Cl)cc2)c1	-1.7	2.6	0.3	-5	15	-1.1	0.66	8	i	-1
Cc1ccc(Cl)cc1N1CCN(C(=O)Cc2c(C(=O)O)[nH]c3ccc(Cl)cc23)CC1	9.3	-0.9	0.7	-11	-17	0.7	0.73	-13	+	-11
COc1ccc(NC(=O)C2=CC(c3ccco3)=NS(=O)(=O)N2C)cc1OC	9.5	4.6	-1.2	-3	-5	0.2	0.75	-4	i	-4
CCOC(=O)N1CCC(N2CCN(S(=O)(=O)c3ccc(OC)cc3)CC2)CC1	0.6	-0.6	-0.8	9	0	0.1	0.69	0	i	17
CC1(C)Cc2c(sc(NC(=O)Nc3ccccc3)c2C(N)=O)CO1	1.7	-8.9	-4.7	11	-1	6.8	0.68	-1	·	3
CCCN(CCO)Cc1ccc(Br)cc1	3.3	·	-0.3	·	·	·	0.65	-2	·	-14
C=CCNc1cnn(-c2ccc(C)cc2)c(=O)c1Cl	3.7	·	0.4	·	·	·	0.78	0	·	-4
COc1ccc(C2=C(C=O)Cc3ccccc3O2)cc1	4.8	2.7	0.7	-42	-55	1.2	0.71	2	i	-8
CCC(=O)Nc1cccc(C2=NN(c3ccccc3)C(c3ccc(OC)cc3)C2)c1 (centres undefined)	i	-7.8	2.2	-1	-4	-3.4	0.67	-3	i	23
CCOC(=O)CN1C(=O)C(CC)Oc2ccccc21 (centres undefined)	2.9	-4.1	0.5	7	12	-2.1	0.69	-3	i	-1
CC1(C)CC(=O)C2=C(C1)OC(N)=C(C#N)C2c1ccoc1 (centres undefined)	1.2	-0.2	-0.5	19	7	3.4	0.62	4	i	-9
CC(=O)c1ccc(NC(=O)COC(=O)CCN2C(=O)c3cccc([N+](=O)[O-])c3C2=O)cc1	0.3	-1.6	-0.2	0	3	-0.2	0.71	-3	i	-28
Cc1cc(C)cc(NC(=O)c2oc3ccccc3c2COc2ccccc2)c1	-0.3	·	0.7	·	·	·	0.71	-6	·	7
O=[N+]([O-])c1cc([N+](=O)[O-])c(Oc2cccc3ccccc23)cc1NN1CCCCC1	0.4	0.6	·	20	16	-2.3	0.76	·	i	·
CCn1c(SCC(=O)N(C)c2c(N)n(Cc3ccccc3)c(=O)[nH]c2=O)nc2ccccc21	4.2	-2.6	0.6	13	2	-5.7	0.73	-4	i	-6
COc1ccc(NC(=O)c2c(C)cc(=O)oc2C)c(OC)c1	-2.4	·	0.4	17	17	1.4	0.79	0	·	-3
C[C@H](CO)N1C[C@H](C)[C@H](CN(C)Cc2ccncc2)Oc2ccc(NC(=O)Nc3ccc(C(F)(F)F)cc3)cc2CC1=O	0.3	2.1	-0.2	-9&2	-39&-29	22&28	0.78	-5	i	·
CCC(CC)C(=O)Nc1cccc(C(=O)Nc2nnc(C)s2)c1	1.0	-1.7	-0.1	26	17	1.0	0.64	-3	i	-3
COc1ccc(NC(=O)CN(C)C(=O)C2(c3ccccc3)CCCC2)cc1	1.0	-1.4	0.7	-6	-7	0.1	0.66	27	i	·
O=S(=O)(c1cccc2nonc12)N1CCCCC1	·	3.8	1.1	11	5	-1.3	·	·	i	-9
COc1ccc(/C=C2/SC(=S)N(CCCC(=O)Nc3ccc(O)cc3)C2=O)cc1OC	3.2	-2.4	-1.4	4	1	-1.4	0.71	-18	i	18
O=C(COC(=O)c1ccccc1NC(=O)c1ccco1)NCCC1=CCCCC1	-0.8	·	-0.2	·	·	·	0.74	-8	·	12
CC(Cc1ccccc1)=NNS(=O)(=O)c1ccc([N+](=O)[O-])cc1	1.9	-0.4	·	4	22	-3.5	0.68	·	i	·
COC(=O)c1ccc(CNC(=O)COC(=O)CCC(=O)c2ccc(F)cc2)cc1	2.5	0.3	1.0	16	10	2.6	0.72	1	i	·
CC(=O)OCc1c(C(F)(F)F)nn(C)c1SCc1ccc(Cl)cc1	-2.0	·	-0.1	·	·	·	0.72	-4	·	6
Cc1ccc(/C=C2/NC(=O)N(Cc3ccccc3)C2=O)s1	-0.8	·	-0.5	·	·	·	0.74	-2	·	-4
COc1ccccc1OCC(=O)/C=C1/N(C)c2ccccc2C1(C)C	-16	2.8	1.3	-29	-40	32	0.72	26	·	22
Oc1ccc(/C=N/Nc2ccc(Cl)nn2)c(O)c1O	·	0.4	-0.3	21	7	20	·	-12	i	19
Cc1ccc(NC(=O)CSc2nnc(CSc3nc(C)cc(C)n3)n2Cc2ccco2)c(C)c1	2.4	·	0.9	·	·	·	0.71	-3	·	14
c1ccc2c(C[C@@H]3CNCCN3CCCCC3CCCCC3)cccc2c1	·	7.7	0.2	-7	-17	30	·	4	i	·
Cc1ccc(CCNC(=O)CCS(=O)(=O)c2ccc(Br)cc2)cc1	4.2	-0.3	0.3	9	8	0.6	0.7	2	i	-2
COc1cc2cc(/C=C/C(=O)c3ccco3)c(Cl)nc2cc1OC	0.2	·	-1.1	·	·	·	0.73	-7	·	-26

Next part.
SMILES	UCH37 inh	MLL AF4-AF9 inh	A1 inh	Ecoli rRNA inh	Ecoli rRNA inh OD600	Ecoli rRNA inh RFP	Ecoli growth	Beta cell apopt	FGF22 binding	T cruzi inh
CC(C)C[C@H](NC(=O)N1CC(=O)Nc2ccccc21)C(=O)N[C@H](C(=O)O)c1ccccc1	2.2	-3.4	0.8	·	·	·	0.78	2	i	-20
CCS(=O)(=O)n1nc(-c2ccccc2)nc1N	-0.8	·	1.8	·	·	·	0.71	-6	·	-15
COc1ccc(NC(=O)c2cc(Cl)ccc2NC(=O)c2ccco2)c(OC)c1	-24	·	0.2	·	·	·	0.73	2	·	-1
CC1CCCCC1NC(=O)C(Cc1ccccc1)NS(=O)(=O)c1cccs1 (centres undefined)	2.6	·	0.4	·	·	·	0.65	-1	·	3
O=C(C1CCCN(S(=O)(=O)c2ccc([N+](=O)[O-])cc2)C1)N1CCCCC1 (centres undefined)	1.9	·	-1.0	·	·	·	0.71	3	·	-7
Cc1cc(-c2ccc(C)c(S(=O)(=O)NCc3ccc(OC(C)C)cc3)c2)on1	1.0	-0.4	-0.1	1	-14	-5.7	0.7	3	i	17
COC(=O)c1sccc1NC(=O)C1C2C=CC(C2)C1C(=O)O (centres undefined)	2.8	·	0.6	·	·	·	0.75	-6	·	-8
COC(=O)[C@]1(Cc2ccccc2)N[C@H](c2ccc(-c3cccc(Cl)c3)cc2)[C@@H]2C(=O)N(C)C(=O)[C@@H]21	-0.1	1.0	-0.5	4	-2	-2.8	·	-1	i	48
O=C(CCCc1ccccc1)Nc1ccccn1	·	0.7	0.0	-1	2	-1.6	·	·	·	5
Cc1cccc(CN2C(=O)/C(=C\c3ccc(C(=O)NCCN4CCOCC4)cc3)Sc3ccccc32)c1	-33	·	-0.1	·	·	·	0.67	3	·	46
CCOC(=O)C1=C(c2ccccc2)NC(SCC(=O)Nc2ccc(C)cc2)=C(C#N)C1c1ccco1 (centres undefined)	-1.3	-15	-0.6	-1	-6	-6.1	0.71	3	i	65*
O=C(COc1ccc([N+](=O)[O-])cc1Cl)Nn1cnnc1	5.4	-17	0.2	7	14	9.9	0.65	-5	i	-9
Cc1ccc(S(=O)(=O)NCCNS(=O)(=O)c2ccccc2Br)cc1	0.2	0.2	·	0	-8	6.9	0.71	·	i	·
Cc1cc([N+](=O)[O-])nn1CC(=O)Nc1ccc(Cl)cn1	2.1	·	0.1	14	-5	-3.2	0.69	-16	i	1
CCN(c1ccccc1)P(=O)(Nc1ccccc1)Nc1ccccc1	2.7	0.4	0.7	-5	-5	-2.1	0.67	2	i	12
C[C@]12CC[C@H](O)CC1=CCC1C2CC[C@@]2(C)C1CC[C@@H]2NC(=O)CCC(=O)O (some centres undefined)	3.2	2.9	1.3	12	-13	2.0	0.67	1	i	·
O=C(C1=C[C@@H](c2ccc(Br)cc2)C[C@@H](OCc2ccc(CO)cc2)O1)N1CCN(Cc2ccc3c(c2)OCO3)CC1	-1.0	·	1.1	·	·	·	·	8	·	36
COc1ccc(CCCC(=O)NCC(=O)N/N=C/c2cc(Cl)ccc2OC)cc1	·	-0.7	·	3	0	1.8	·	·	i	-10

High-throughput results (PubChem)
